# Choline anaer gr: growth inhibitors of anaerobic choline-fed gram-negatives, minimal medium, absorbance. Gram-negative bacterium anaerobic choline minimal medium; hits give low values; many inactives read as strong as hits in the columns shown. calls only. actives 0.2% (n = 55,000). AID 1963822, 2024;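 active = growth z-score on choline under -2 at 7 or 20 h with little or no fall on glycerol, limits in tiers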;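 also: stock transfer was 300 nL into about 50 µL; the organism is E. coli; final concentration not given here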
# Choline anaer gr early: further read-out of Choline anaer gr, marked with its call; z-score; measured here: choline growth z-score, timepoint 1;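 score of optical density at 7 h as mean of two plates; lower means less growth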
# Numbers without * were called inactive; i = inactive; + = active, no number; & = joins results of further samples. Not all compounds are listed (hit frequency here may not be typical).
SMILES,Choline anaer gr,Choline anaer gr early
Cc1nn(C)c(C)c1CCNS(=O)(=O)c1ccc(F)cc1,i,0.13
Cc1cc2c(cc1S(=O)(=O)N1CCCC1C(=O)NC1CCCCC1)OC(C)C(=O)N2 (configuration not stated),i,-1.4
O=C(Nc1ccc(Br)cc1)N1CCCCCC1c1cccs1 (configuration not stated),i,1.1
CC(C)C(N)C(=O)OCCOCn1cnc2c(=O)[nH]c(N)nc21 (configuration not stated),i,0.54
Cc1noc2nc(C)n(CC(=O)N3CCC(C)CC3)c(=O)c12,i,-0.36
CN(C)C(=O)c1ccc2c(c1)N(CC(=O)NCCC1=CCCCC1)C(=O)CS2,i,0.66
O=C(CN1c2ccc(Br)cc2-c2ccccc2S1(=O)=O)NCc1ccccn1,i,1.1
Cc1cccc(C)c1Nc1cc(-c2ccccc2)ncn1,i,-0.04
CC(C)CNc1cc(N2CCC(C)CC2)c2noc3c2c1C(=O)c1ccccc1-3,i,-0.36
CC(C)c1cc(C2CCCN2S(C)(=O)=O)no1 (configuration not stated),i,0.32

# In another format: entries from further up
Structure	Choline anaer gr	Choline anaer gr early
CN(C)C(=O)c1ccc2c(c1)N(CC(=O)NCCC1=CCCCC1)C(=O)CS2	i	0.66
Cc1nn(C)c(C)c1CCNS(=O)(=O)c1ccc(F)cc1	i	0.13
Cc1cc2c(cc1S(=O)(=O)N1CCCC1C(=O)NC1CCCCC1)OC(C)C(=O)N2 (configuration not stated)	i	-1.4
CC(C)CNc1cc(N2CCC(C)CC2)c2noc3c2c1C(=O)c1ccccc1-3	i	-0.36
CC(C)c1cc(C2CCCN2S(C)(=O)=O)no1 (configuration not stated)	i	0.32

# (further entries)
SMILES,Choline anaer gr,Choline anaer gr early
CCc1onc(C)c1C1CCCN1Cc1cc(Cl)ccc1O (configuration not stated),i,-1.4
Cc1ccc(-c2noc(-c3ccccc3S(=O)(=O)NCCc3ccc(S(N)(=O)=O)cc3)n2)cc1,i,0.4
CCc1nnc(NC(=O)c2cc(-c3ccc(C)cc3)on2)s1,i,-0.84
CCN1CCCC1CNC(=O)Cn1cccc1-c1nnc(C2CCC2)o1 (configuration not stated),i,0.08
COc1ccc(S(=O)(=O)N(C)CC2(C)CCOCC2)cc1Cl,i,-0.03
O=S(=O)(c1ccccc1)N1CCn2cccc2C1c1ccc(Br)cc1 (configuration not stated),i,1.3
O=C(Cn1cc(Cl)cn1)N1CCCC1c1ccco1 (configuration not stated),i,-0.94
CN(C(=O)C1CCN(c2ncc(-c3ccccc3)cn2)CC1)C1CCCCC1,i,0.01
O=C(CCn1nnc2cc(-c3noc(C4(c5ccccc5)CC4)n3)ccc21)N1CCOCC1,i,0.73
Cc1ccc(NS(=O)(=O)c2cc(-c3nc(C)c(C)s3)sc2C)c(C)c1,i,1.5

# Reprinted at random: four compounds from above, in no set order.
SMILES,Choline anaer gr,Choline anaer gr early
CCc1onc(C)c1C1CCCN1Cc1cc(Cl)ccc1O (configuration not stated),i,-1.4
O=C(Cn1cc(Cl)cn1)N1CCCC1c1ccco1 (configuration not stated),i,-0.94
O=S(=O)(c1ccccc1)N1CCn2cccc2C1c1ccc(Br)cc1 (configuration not stated),i,1.3
CCc1nnc(NC(=O)c2cc(-c3ccc(C)cc3)on2)s1,i,-0.84

# Further compounds
SMILES,Choline anaer gr,Choline anaer gr early
Cc1onc(-c2ccncc2)c1C(=O)NCCCN1CCN(c2ccccc2F)CC1,i,-0.83
CCSc1nn(CC(=O)Nc2cccc(CC)c2)c(N)c1S(=O)(=O)c1ccccc1,i,1.5
Cc1nn(CC(=O)Nc2ccc3c(c2)nc(CCNC(=O)C2CC2)n3C)c(=O)c2ccccc12,i,1.3
COCCCNCc1ccc(-c2ccc(C(C)O)cc2)o1 (configuration not stated),i,0.55
O=C(c1cccnc1)N1CCN(c2nc3ccccc3n2Cc2ccccc2)CC1,i,-0.14
O=S(=O)(c1ccc(-c2cc(C(F)(F)F)on2)o1)N1CCN(c2ncccn2)CC1,i,-1.3
COC(=O)c1nc2ccccc2nc1N1CC=C(c2ccccc2)CC1,i,0.15
Cc1nc(CCNC(=O)[C@H]2CCCN2S(=O)(=O)c2ccccc2F)cs1,i,0.18
Cc1ncc2c(=O)n(CCCN(C)C)c(=O)n(C)c2n1,i,-0.63
CCN1CCN(c2nc3ncn(CC(=O)Nc4ccc5c(c4)OCO5)c(=O)c3s2)CC1,i,-0.41
CCC(C)NC(=O)c1cnc2sccn2c1=O (configuration not stated),i,0.29
OC[C@H]1O[C@@H](n2cnc3c(NC4CCCC4)ncnc32)C(O)[C@H]1O (some centres not stated),i,-0.21
Cc1ccc(-c2noc(-c3cccnc3NCc3cccnc3)n2)cc1,i,1.5
Cc1ccc2[nH]cc(CCNC(=O)C3CCCN(c4nccc(C)n4)C3)c2c1 (configuration not stated),i,0.3
O=C(CSc1nccn2nc(-c3ccc(F)cc3)cc12)Nc1cc(F)ccc1F,i,-1.9
CNC(=O)c1nsc(C(=O)OC)c1N,i,-0.3
O=C(NC1CCN(Cc2ccccc2)CC1)c1cc(CN2CCOCC2)on1,i,-0.73
Cc1cc(CC(=O)O)n(C)c1C(=O)c1ccc(Cl)cc1,i,0.52
Cc1sc(-c2nnc(C(C)C)o2)cc1NS(C)(=O)=O,i,-0.6
Cc1nn(-c2ccccc2)c2c1C(C(=O)NC1CCCC1)N(Cc1ccc(Cl)cc1)C(=O)CS2 (configuration not stated),i,1.1
CCN1CCN(c2cc(C(C)(C)C)nc3c(-c4ccc(F)cc4)c(C)nn23)CC1,i,0.73
Cc1ccc2nc(CCc3ccc(NC(=O)Nc4ccc(C)c(C)c4)cc3)[nH]c2c1,i,-1.4
COc1ccc(C(=O)NCc2c(-c3ccccc3)nc3n2CCS3)cc1OC,i,0.22
CCOC(=O)C1CCN(S(=O)(=O)c2cc3c(cc2Cl)NC(=O)CO3)CC1,i,0.4
O=C(c1csc(S(=O)(=O)NCc2ccccn2)c1)N1CCCC1,i,0.41
Cc1ccc(NC(=O)C2CCN(C(=O)c3ccc(-c4noc(C)n4)cc3)CC2)nc1,i,0.18
CN1CCCC1CCOC(C)(c1ccccc1)c1ccc(Cl)cc1 (configuration not stated),+,-2.6*
CC(C)CCNC(=O)CCCCn1c(=O)c2ccccc2n(CC(=O)Nc2cc(F)ccc2F)c1=O,i,1.8
O=C(Nc1ccc(F)cc1F)N1CCCCCC1c1cccs1 (configuration not stated),i,-0.59
COc1ccccc1N1CCN(C(=O)CSc2nnc(-c3cc4ccccc4n3C)o2)CC1,i,-0.81
Cc1ccc(N2CC(C(=O)Nc3ccc(-c4nc(C)no4)cc3)CC2=O)cc1 (configuration not stated),i,-0.59
CN(Cc1ccccc1)C(=O)Cn1ncc2c3ccccc3n(C)c2c1=O,i,-2
O=S(=O)(c1ccc(Cl)cc1)N1CCN(c2ccc(N3CCCC3)nn2)CC1,i,0.93
Cc1ccc(NC(=O)NCC2CCN(Cc3cc(C)ccc3C)CC2)c(Cl)c1,i,1.1
Cc1cc(NC(=O)Nc2ccc(N(C)C)cc2)c2cc(F)cc(F)c2n1,i,-1.1
Cc1ccc(S(=O)(=O)c2cnc(N3CCN(c4cc(C)ccc4C)CC3)nc2N)cc1,i,0.58
CCN(Cc1ccccc1)C(=O)c1ccc(N2CCNCC2)c(NS(=O)(=O)c2ccc(F)cc2)c1,i,0.01
CCOc1ccccc1C(=O)Nc1nnc(C2CC(=O)N(c3ccc(C)cc3)C2)o1 (configuration not stated),i,0.59
CNC(=O)N1CCCC(c2cccc(C(=O)NCCCN3CCCC3=O)c2)C1 (configuration not stated),i,-1.3
O=C(NCc1ccccc1)c1ccc(N2C(=O)CCS2(=O)=O)cc1,i,-0.29
CCOC(=O)c1cc(NC(=O)N2CCN(c3ccc(F)cc3)CC2)c(C)nc1C,i,-1
COc1cccc(C(=O)Nc2cccc(-c3nc(-c4ccccc4)no3)c2)c1,i,0.06
O=C(NCCc1c[nH]c2ccccc12)c1cccc(N2C(=O)CCS2(=O)=O)c1,i,0.08
CCCCN(C)c1ccc2nnc(CCc3nc(-c4ccccc4C)no3)n2n1,i,-0.5
COc1cccc(C2C(C(=O)O)c3ccccc3C(=O)N2C)c1OC (configuration not stated),i,-0.1
Cc1ccc(-c2nc3cccnc3n2CCCNC(=O)c2cccnc2)cc1,i,-0.03
CCN1CCN(C(=O)c2cc3sc(C)c(CN4CCOCC4)c3[nH]2)CC1,i,0.51
COc1ccc(NC(=O)c2cc3c(COC(C)=O)cnc(C)c3oc2=O)cc1,i,0.45
CCOC(=O)c1[nH]c(C)c(CN(Cc2ccc(OC)cc2)S(=O)(=O)c2ccc(F)cc2)c1C,i,-0.71
CC(Oc1ccc2c3c(c(=O)oc2c1)CCC3)C(=O)O (configuration not stated),i,0.56

# Further records.
SMILES,Choline anaer gr,Choline anaer gr early
Cc1ccc(-c2ccc(N3CCCC(C(=O)Nc4ccc5c(c4)OCO5)C3)nn2)cc1 (configuration not stated),i,1.6
CCCCC[C@H](O)/C=C/C1=C(C/C=C\CCCC(=O)O)C(=O)CC1,i,0.04&0.39
CC(=O)Nc1cc(Cl)ccc1OCc1cc(=O)n2c3c(sc2n1)CCCC3,i,-0.63
O=c1[nH]cnc2[nH]ncc12,i,0.35&-0.09&0.66
O=C(Nc1cccc(Cl)c1)c1ccc2nncn2c1,i,0.47
Cc1nc2sccn2c(=O)c1NC(=O)CCC1CCCC1,i,-0.47
Cc1nc(N2CCN(Cc3ccc4c(c3)OCO4)CC2)nc2c1C(=O)CC(C)C2 (configuration not stated),i,1
C=CCN(c1ccccc1)S(=O)(=O)c1ccc2c(c1)NC(=O)CS2,i,-0.59
Cc1ccc(CNS(=O)(=O)c2c(-c3nnc(C)o3)c(C)n(C)c2C)o1,i,1.2
Cc1ccccc1CN=C1Nc2ccccc2NC12CCCCCC2,i,-0.85
c1ccc(-c2noc(-c3ccc(NC4CCCCC4)nc3)n2)cc1,i,1.3
Cc1cc(C)n2nc(CN(C(=O)C(C)(C)C)c3ccc(Cl)cc3)nc2n1,i,-0.59
O=C(c1cccc(-c2noc(-c3ccc4c(c3)OCO4)n2)c1)N1CCCC1,i,-1.4
O=S(=O)(c1cccc2cnccc12)N1CCNCC1,i,0.5
Cc1nc(Nc2ccc(NC(=O)C(C)C)cc2)cc(N2CCCC2)n1,i,0.47
CCCCC[C@H](O)/C=C/[C@H]1[C@H](O)CC(=O)[C@@H]1C/C=C\CCCC(=O)Oc1ccc(NC(C)=O)cc1,i,0.98
CC(CCc1ccccc1)NCC(O)c1ccc(O)c(C(N)=O)c1 (configuration not stated),i,-0.18&0.22&-0.78
COc1cccc(C2c3c(-c4cc(C)ccc4O)n[nH]c3C(=O)N2CCCO)c1 (configuration not stated),i,0.52
CC(C)Oc1ccc(CNC(=O)C2CCN(c3nc4ccccc4n(C)c3=O)CC2)cc1,i,0.77
CCOc1ccc(-c2cc3c(SCC(=O)c4ccc(C)cc4C)nccn3n2)cc1,i,-1.5

# By substructure, those above with a tert-butyl group (two)
SMILES,Choline anaer gr,Choline anaer gr early
CCN1CCN(c2cc(C(C)(C)C)nc3c(-c4ccc(F)cc4)c(C)nn23)CC1,i,0.73
Cc1cc(C)n2nc(CN(C(=O)C(C)(C)C)c3ccc(Cl)cc3)nc2n1,i,-0.59

# The listing continues:
SMILES,Choline anaer gr,Choline anaer gr early
CCOC(=O)C1CCN(C(=O)C2CCN(c3cnc(N4CCSCC4)nc3)CC2)CC1,i,0.25
O=C(c1ccc2c(c1)OCO2)N1CCc2c([nH]c3ccccc23)C1c1ccc(F)cc1 (configuration not stated),i,0.49
CCOC(=O)C1CCN(C(=O)c2ccc3nc(N4CCCCC4)sc3c2)CC1,i,-0.19
O=C(CCc1nc(CSc2nnc(-c3ccncc3)o2)no1)Nc1ccc(Cl)cc1,i,-0.94
O=C(O)Cc1cc(=O)oc2cc(O)cc(O)c12,i,0.74
COc1ccc(CN2CCN(C(=O)c3cc(-c4ccccc4)n[nH]3)CC2)cc1F,i,-0.54
O=C(NCc1ccc(Cl)cc1)c1ccc(NC(=O)N2CCSc3ccccc32)cc1,i,-0.21
Cc1ccc(NC(=O)N(C)CCc2noc(C(=O)NCc3ccc(Cl)cc3)n2)cc1,i,-0.52
Clc1ccc2nc(-c3ccc(N4CCOCC4)cc3)c(Nc3ccccc3)n2c1,i,-1.2
CC(=O)N(Cc1ccccc1)c1nc2ccccc2n(CC(=O)Nc2cccc(Cl)c2C)c1=O,i,-0.47
CC(C)n1c(=O)c2cn(S(=O)(=O)c3cccc4nsnc34)nc2n(C(C)C)c1=O,i,-0.25
COc1ccc(NC(=O)c2ccc(CN3CCCn4nc(C)cc43)cc2)cc1OC,i,0.47
C=CCNC(=O)CN1C(=O)CSc2ccc(C(=O)N3CCCC3)cc21,i,1.2
O=C(c1cc(-c2cccnc2)on1)N1CCc2ccccc21,i,-1.1
CC(=O)Nc1nc2ccc(CC(=O)N3CCc4ccccc4C3)cc2s1,i,-1.1
COc1ccc(OC)c(NC(=O)NCCn2c(-c3ccncc3)nc3cccnc32)c1,i,-0.25
Cc1ccc(CSc2nnc3c(S(=O)(=O)N4CCCCC4)cccn23)cc1,i,-0.45
CCOc1ccc(N2CCn3c2nc2c3c(=O)n(CC(=O)O)c(=O)n2C)cc1,i,-2.1
COc1cccc(NC(=O)NCc2ccc3c(c2)N(C(=O)c2ccccc2)CC3)c1,i,1.5
CCOc1c(N2CCC(C)CC2)c(=O)c1=O,i,-0.64
O=S(=O)(c1cccc2cccnc12)N1CCc2nc(-c3ccccc3)ncc2C1,i,0.34
O=C(c1ccc2c(c1)OCO2)N1CCN(S(=O)(=O)c2cc3c4c(c2)CCN4C(=O)CC3)CC1,i,0.22
